TRPV1 potentiator: enhances activation of the human vanilloid receptor TRPV1. 320,000 tested, 0.02% active. Q8NER1. AID 540277. TRPV1-expressing cells, Fluo-8 calcium influx, capsaicin EC20 potentiation; host cell line not named in the record; control for the full effect not named in the record. potentiation, % at 8.33 µM; active means potentiation above 80%; inconclusive means 30% to 80%; inactive means below 30%; further: 0% is about no effect
Target sequence (Q8NER1 whole entry, looked up): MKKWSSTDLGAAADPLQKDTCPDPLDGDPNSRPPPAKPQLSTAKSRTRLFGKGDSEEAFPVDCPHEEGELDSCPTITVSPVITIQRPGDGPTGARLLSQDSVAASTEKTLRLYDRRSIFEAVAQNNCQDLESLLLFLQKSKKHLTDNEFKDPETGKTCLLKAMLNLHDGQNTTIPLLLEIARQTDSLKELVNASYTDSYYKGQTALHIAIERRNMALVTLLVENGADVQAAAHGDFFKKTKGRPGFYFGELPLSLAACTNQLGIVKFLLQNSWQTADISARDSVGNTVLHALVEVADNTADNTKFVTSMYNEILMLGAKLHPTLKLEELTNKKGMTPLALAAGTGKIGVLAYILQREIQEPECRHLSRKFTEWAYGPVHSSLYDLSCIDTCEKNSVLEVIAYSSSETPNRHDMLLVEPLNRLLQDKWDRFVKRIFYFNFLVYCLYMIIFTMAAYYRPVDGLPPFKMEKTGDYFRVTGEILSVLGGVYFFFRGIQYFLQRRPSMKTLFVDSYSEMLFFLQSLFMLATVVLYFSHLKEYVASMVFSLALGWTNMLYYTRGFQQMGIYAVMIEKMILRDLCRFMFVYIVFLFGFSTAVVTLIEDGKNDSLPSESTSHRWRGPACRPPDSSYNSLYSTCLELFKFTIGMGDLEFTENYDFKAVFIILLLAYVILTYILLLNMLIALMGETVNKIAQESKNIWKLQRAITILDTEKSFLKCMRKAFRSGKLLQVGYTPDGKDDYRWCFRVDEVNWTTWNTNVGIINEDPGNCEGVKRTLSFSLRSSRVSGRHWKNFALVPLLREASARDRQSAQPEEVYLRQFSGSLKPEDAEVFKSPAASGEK
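Fluo-8 calcium influx in TRPV1-expressing cells, kinetic read (ex 480/em 520 nm). Compound added and read 3 min for agonist activity, followed by capsaicin at EC20 final and 2 min further read for enhancement.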
ClpP mod: qHTS Assay for Activators of ClpP; ATP-dependent Clp protease proteolytic subunit (Bacillus subtilis (strain 168)), P80244; purified B. subtilis ClpP, FRET peptide cleavage, 20 min; Potency, µM (doses to about 57.5 µM), for the others: at the top dose activity change, negative = active; 340,000 tested, 1.9% active; active = well fitted falling curve with a large enough effect; inconclusive = small, poorly fitted or top-dose-only effect; inactive = no such curve, though single readings can be large or run the other way; further: potency means the concentration at half of the fitted maximal effect; the source files actives as falling curves though it sought activators and does not explain the sign; nearly all actives have a fitted effect of over 65% in size; many hits overshoot -100%
Target sequence (P80244 whole entry, looked up): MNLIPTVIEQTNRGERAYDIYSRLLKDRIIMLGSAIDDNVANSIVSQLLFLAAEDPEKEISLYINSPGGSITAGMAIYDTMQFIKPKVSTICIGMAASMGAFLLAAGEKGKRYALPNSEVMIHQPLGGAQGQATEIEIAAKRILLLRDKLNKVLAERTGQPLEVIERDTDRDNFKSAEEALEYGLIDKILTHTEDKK
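FRET quenching reversal measured ClpP activation: 10 microg/mL B. subtilis ClpP at pH 8 with the FRET-FV decapeptide, read at 430 nm after 320 nm excitation. The 20-min minus 0-min signal was scaled between DMSO/no-enzyme wells and ADEP (5.8 microM final).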
Menin-MLL FL inh: menin-MLL binding inhibition, fluorescein peptide. Fluorescence polarization, fluorescein-MLL peptide displacement from menin. FP activity change, % at 61.4 µM. 290,000 tested, under 10 active; inconclusive = falling polarisation curve, or a change in total fluorescence; inactive = total fluorescence flat and polarisation flat or rising; no compound was filed as active; the % refers to the polarisation; negative = inhibition;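 further: % of control where 0% means no effect; inhibitors lower the polarisation; unlabelled MLL peptide was the positive control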
Sfp PPTase inh: Sfp phosphopantetheinyl transferase inhibition; Q9F4F7; Biochemical Sfp PPTase activity, qHTS; Potency, µM, without a hit: max response, negative = inhibition, most hits filed as inhibitors; 310,000 tested, 3.5% active; AID 1490; active means well fitted inhibition curve with a large enough effect; inconclusive means small, poorly fitted or top-dose-only effect, or another doubt; inactive means no such curve, though single readings can be large or run the other way;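 further: the enzyme is Sfp with the accession as filed and its product quenches rhodamine fluorescence; potency means the concentration at half of the fitted maximal effect; 0% = enzyme reaction without inhibitor and -100% = no enzyme wells; top concentration of the series not given in the record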
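Sfp 15 nM + cpd, 15 min RT; start w/ rhodamine-CoA 5 uM, BHQ-2-YbbR 12.5 uM (final); 50 mM Hepes pH 7.6, 10 mM MgCl2, 0.01% NP-40, 0.01% BSA; read 525/598 nm at 0 and 30 min.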
gsp antag: antagonizes gsp, the McCune-Albright syndrome mutation. gsp-mutant cells, cAMP HTRF, 30 min; control for the full effect not named in the record. Potency, µM (titrated, usually from 76.9 µM), inactives show at the highest dose activity change, negative = inhibition, hits mostly inhibitors. 340,000 tested, 0.4% active. AID 624288; active = falling curve of any shape with a large fitted effect; inconclusive = falling curve, mostly with a smaller effect; inactive = flat or rising curve; cell line not stated here;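 further: intracellular cAMP measured with PDE inhibitor Ro 20-1724 present during compound exposure; potency means the concentration at half of the fitted maximal effect; on the % scale 0 is the no-effect control and ±100 the full control effect; nearly all actives have a fitted effect of over 65% in size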
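Cells in G418 medium, seeded 16-24 h, 37C; buffer exchange to DPBS + 1 mM CaCl2, 0.5 mM MgCl2, 0.05% BSA; cpds in DMSO + […] (300 uM stock), 30 min 37C; HTRF cAMP detection.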
CtBP-E1A inh: CtBP/E1A binding inhibition; AlphaScreen GST-E1A/His-CtBP binding, 1536-well; active compounds read low; control for the full effect not named in the record; activity change, % (no concentration beside the values); 340,000 tested, 0.49% active; AID 651724; in the data active means activity change below about -65%; inconclusive means about -30% to -65%; inactive means above about -30%; further: on the % scale 0 is the no-effect control and ±100 the full control effect
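In 5 uL wells, 23 nL compound meets equimolar GST-E1A and His-CtBP (5X stock 125 nM each) for 2 h, 37 °C. Beads (5X, 50 ug/mL) then 1 h, 37 °C, dark.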
gsp ag: gsp mutant agonism. gsp mutant cells, cAMP HTRF, 30 min; control for the full effect not named in the record. Potency, µM (titrated, usually from 76.9 µM), inactives show at the highest dose activation (cAMP increase), hits mostly activators. 340,000 tested, 0.13% active; active = well fitted activation curve with a large enough effect; inconclusive = small, poorly fitted or top-dose-only effect, or another doubt; inactive = no such curve, though single readings can be large or run the other way; cell line not stated here;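 further: phosphodiesterase inhibitor Ro 20-1724 added with compounds to block cAMP breakdown; potency means the concentration at half of the fitted maximal effect; nearly all actives have a fitted effect of over 60% in size; about a fifth of the inactives were tested at one dose only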
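Cells stably selected in G418 were plated at 2000/well, grown 16-24 hr, then given compounds in DMSO with the PDE inhibitor […] (300 uM solution added) for 30 min at 37C; cAMP was read by HTRF.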
* hit, by the source's call; ? = inconclusive; nt = not tested or not shown; [ ] = remark or other dose.

SMILES	Menin-MLL FL inh	CtBP-E1A inh	gsp antag	TRPV1 potentiator	gsp ag	ClpP mod	Sfp PPTase inh
CCOC(=O)c1cccc(OS(=O)(=O)Cc2ccccc2)c1	nt	28	-18%	nt	12%	1.4%	nt
COC(=O)c1ccccc1NC(=O)C1CCN(C(=O)c2cc(OC)c(OC)c(OC)c2)CC1	5.1	0	-15%	nt	-4%	?	-7%
Cc1ccc(S(=O)(=O)N2CCN(C(=O)CSc3nnc(C)s3)C2)cc1	2.3	9	8%	11	-27%	1.5%	20%
CCCCC(CC)CNCc1cccn1CCN1CCOCC1 (configuration not stated)	3.7	-6	14%	-7	-15%	-0.3%	-12%
COC(=O)c1c(-c2ccc(OC)cc2)sc2ccc(N3CCOCC3)cc12	nt	-19	-16%	nt	?	-1.1%	nt
Cc1ccc(CNC(=O)C23CN(Cc4ccccc4)CC2C(c2ccc([N+](=O)[O-])cc2)=NO3)cc1 (configuration not stated)	-2.7	-21	1%	-2	nt	-0.3%	40µM*
Clc1ccc(OCc2nnc(SCc3nnc(-c4ccccc4)o3)o2)c(Cl)c1	2.2	0	?	12	-9%	-5.1%	7%
Cc1cccc(/C=C\c2nc3ccccc3c(=O)[nH]2)c1	2.0	-6	21%	-4	-3%	?	-18%
CC(C)NC(=O)c1ccc(-n2nc(C(F)(F)F)c3c2CCCC3)cc1	5.3	1	8%	-18	?	0.3%	5%
CCCn1c(NCc2cc(C)ccc2O)nc2ccccc21	2.5	-1	-19%	2	-12%	0.8%	6%
O=C(O)c1cccc(-n2cccc2/C=C2/NC(=O)N(c3cccc(Cl)c3)C2=O)c1	17	-22	-6%	?	-4%[15.4 µM]	nt	45µM*
CC(C)(C)c1cn(-c2ccc(F)cc2)c(=S)[nH]1	2.5	0	7%	1	-34%[inhibitor]	1.3%	?
CC(C)(C)NC(=O)C(c1ccc(O)cc1)N(Cc1ccccc1)C(=O)CCC(=O)Nc1nccs1 (configuration not stated)	2.0	2	7%	-2	-3%	nt	15%
COc1ccc(N(C)C(=O)c2sc(Cl)nc2C)cc1	0.7	13	8%	6	-21%	0.9%	0%
COc1ccc(C(=O)N(CC2CCCO2)C(C(=O)NCCC(C)C)c2ccc(C)cc2)cc1OC (configuration not stated)	2.2	-1	1%	-7	-10%	2.9%	1%
COc1cccc(N2CCC(N3CCN(C)C(CCO)C3)CC2)c1 (configuration not stated)	6.6	nt	3%	-11	-30%	-3.0%	15%
C[C@H](NC(=O)NC1CCCc2ccccc21)C(=O)O (some centres not stated)	4.9	-4	8%	14	-18%	?	6%
NC(=O)C1(C(N)=O)OC1c1ccc(Cl)c(Cl)c1 (configuration not stated)	8.4	nt	6%	26	-35%[inhibitor]	-1.3%	-3%
O=c1c(C(c2nnnn2C2CCCCC2)N2CCCCC2)coc2ccc(Cl)cc12 (configuration not stated)	2.9	-3	-14%	-1	-2%	-11%	8%
COc1cc(C(C)=O)ccc1OCC(=O)Nc1ccc2nc(C)sc2c1	nt	nt	6%	13	?	-1.2%	nt
CCCn1cnc2c(SCc3ccc(Cl)cc3)nc(N)nc21	nt	-5	8%	nt	2%	-2.3%	nt
N#Cc1sc2nc3c(c(-c4ccco4)c2c1N)CCCC3	5.3	17	5%	9	?	-1.2%	-15%
Cc1ccccc1C(=O)NCCCc1ccccc1	-0.7	-7	12%	-7	0%	2.2%	13%
O=C(Cc1c[nH]c2ccccc12)Nc1nc2ccccc2[nH]1	9.5	2	2%	17	-17%	-8.7%	5%
CCc1nc2sc3c(c2c(=O)n1N)CCC3	6.3	-2	-2%	9	-17%	-3.2%	-28%
O=C(NCCc1cnc[nH]1)c1ccc(-c2ccccc2)cc1	-1.7	0	3%	-14	9%	-5.3%	6%
CCOC(=O)COn1c(=O)c(-c2cccs2)[n+]([O-])c2ccccc21	1.6	-8	-12%	-18	27%	-5.4%	10µM*
COCCCn1c(C(=O)Nc2ccc3c(c2)OCO3)cc2c(=O)n3ccccc3nc21	0.8	1	-1%	-17	28%	-5.1%	-13%
COc1cc(NC(=S)N2CCN(C(=O)c3ccco3)CC2)c(OC)cc1Cl	6.2	-15	2%	8	-56%[inhibitor]	1.4%	56µM*
Cc1ccccc1C(=O)Nc1ccccc1NC(=O)c1ccccc1Br	-3.2	-6	-4%	-1	-6%[15.4 µM]	-1.8%	11%
CC(C)(C)N(NC(=O)OCc1ccccc1)C(=O)c1ccccc1	0.4	7	11%	3	-1%[15.4 µM]	-5.7%	12%
C#CNC(=O)C1(CC=C)CCNCC1	nt	5	7%	12	10%	-0.3%	nt
NC(=O)N/N=C/c1cn(-c2ccccc2)nc1-c1ccccc1	-2.4	-1	-44%	-17	19%[15.4 µM]	nt	-23%
O=C(CSC(=S)N1CCSCC1)c1ccccc1	3.1	nt	4%	-2	-1%[15.4 µM]	nt	2%
COc1cc(/C=C/C2=NNC(=O)CC2)cc(OC)c1OC	1.4	5	3%	-12	-18%	-25%	8%
CCN(CC)CCCn1c(C)cc2c(c1=O)C(c1cc(OC)c(OC)cc1OC)C(C#N)=C(N)O2 (configuration not stated)	1.8	-20	5%	12	8%	-3.3%	22%
CCc1cc2c(N3CCN(C(=O)c4ccco4)CC3)ncnc2s1	nt	0	-12%	-11	0%[15.4 µM]	2.8µM*	5%
CCc1c(C(=O)NN2C(=O)C3CCCCC3C2=O)csc1C (configuration not stated)	2.2	2	-12%	-2	-14%	-1.5%	16%
CN1/C(=C\C(=O)C[n+]2cccc(Br)c2)C(C)(C)c2ccccc21	6.8	-2	14%	1	8%[15.4 µM]	0.7%	22%
O=c1c2ccc([N+](=O)[O-])cc2ncn1Cc1ccccc1C(F)(F)F	5.4	-4	12%	2	2%[15.4 µM]	nt	9%
Cc1nc(CS(=O)(=O)c2ccccc2)cc(N2CCN(c3ccccc3F)CC2)n1	-3.0	3	1%	-1	4%[15.4 µM]	nt	1%
COc1ccc(F)cc1S(=O)(=O)NCC(c1ccc2c(c1)OCO2)N1CCN(C)CC1 (configuration not stated)	nt	6	8%	2	5%[15.4 µM]	1.5%	nt
CCOc1ccc(-n2cc(C(=O)NCCOC)c3cc(OC)c(OC)cc3c2=O)cc1	-7.0	-1	-11%	-3	21%	nt	11%
COC(/C=C/Nc1ccc(OC)cc1)=C(C#N)C#N	0.1	37	1%	-9	-42%[inhibitor]	1.1%	12%
COc1ccc(-c2nn3c(C4CCCCC4)nnc3s2)cc1OC	4.4	-17	4%	nt	14%	?	?
CCCc1noc(-c2cccc([N+](=O)[O-])c2)n1	-9.4	-5	8%	-5	4%[15.4 µM]	1.4%	-4%
CCCCCN(C(=O)COC(=O)COc1c(C)cc(C)cc1C)c1c(N)n(CCCC)c(=O)[nH]c1=O	nt	-6	-8%	-1	-2%[15.4 µM]	nt	nt
Cc1cccc(OCc2nnc(SCC(=O)Nc3cccc(C(=O)N4CCOCC4)c3)n2C)c1	-1.5	0	-1%	-3	22%	nt	-7%
O=C1NC2(CCCCCC2)C(=O)N1Cc1ccccc1	-7.3	4	16%	28	19%	2.8%	-1%
COc1ccc(CC(=O)NNC(=O)CSc2nnc(Cc3ccc(OC)cc3)n2-c2ccccc2)cc1	0.1	nt	-13%	21	0%	-3.6%	-6%
O=C(CSCc1ccccc1)Nc1cccc(C(=O)Nc2ccc(C(=O)O)cc2)c1	3.8	7	4%	4	-9%	-1.7%	?
Cc1csc(=O)n1CCC(=O)OCC(=O)Nc1cc([N+](=O)[O-])ccc1Cl	nt	15	-8%	-23	0%	-19%	nt
Cc1cc(=O)c(C(=O)O)nn1-c1ccccc1Cl	-2.0	-8	7%	10	-22%[15.4 µM]	nt	-3%
O=S1CC/C(=N\O)c2ccccc21 (configuration not stated)	3.8	10	15%	4	10%	-3.3%	10%
CN(C)S(=O)(=O)c1ccc(C(=O)Nc2ccc(Cl)cc2)cc1	-1.0	4	-7%	nt	-23%	1.0%	-5%
CC(C)(C)N(CC#CCC1(O)c2ccccc2-c2ccccc21)CCO	0.9	-15	nt	-8	2%[15.4 µM]	nt	-11%
Cc1cccc(C)c1NC(=O)COC(=O)c1cccc2c1C(=O)c1ccccc1C2=O	5.4	-1	3%	-8	?	-0.8%	8%
O=C(NC1CCCCC1)c1ccc2ccccc2c1	nt	-2	nt	nt	13%	-14%	nt
CCC(=NCCc1c(C)[nH]c2ccc(OC(F)(F)F)cc12)C1=C(O)CC(c2ccccc2)CC1=O (configuration not stated)	-0.5	-2	-4%	1	6%[15.4 µM]	0.5%	?
O=c1c2c(-c3cccs3)csc2ncn1-c1ccc(Br)cc1	2.1	-3	5%	-17	-33%	?	13%

Continuation:
SMILES	Menin-MLL FL inh	CtBP-E1A inh	gsp antag	TRPV1 potentiator	gsp ag	ClpP mod	Sfp PPTase inh
CC1(C)OC(=O)C(=NNc2ccccc2C(=O)O)C(=O)O1	1.0	-20	2%	6	-19%	-2.7%	-20%
CCN(CC)S(=O)(=O)c1cc(NC(=O)c2n[nH]c(=O)c3ccccc23)ccc1C	-1.6	4	-16%	-20	-28%	0.1%	16%
COc1ccc(/C=C/C(=O)Nc2cccnc2Cl)cc1	5.0	3	1%	-22	-9%	-8.8%	-3%
Cc1ccc(S(=O)(=O)N2CCOC23CCN(C(=O)c2cc(Cl)ccc2Cl)CC3)cc1	2.6	nt	2%	2	-21%	1.1%	-17%
O=C1C(Nc2ccc(O)cc2)=C/C(=N/S(=O)(=O)c2cccs2)c2ccccc21	-2.7	?	-21%	17	-14%	nt	-4%
CCCCN(Cc1ccccc1)C1CCN(Cc2ccccc2)CC1	-2.2	-3	20%	-14	-57%[inhibitor]	nt	-5%
O=C(O)c1ccccc1-c1ccccc1C(=O)NCc1ccco1	0.2	-1	-1%	11	-15%	-0.7%	12%
Cc1ccc(-c2csc3ncnc(N4CCN(S(=O)(=O)c5ccc(C#N)cc5)CC4)c23)cc1	nt	-2	nt	nt	-15%	-2.2%	nt

Screening results deposited in PubChem BioAssay by National Center for Advancing Translational Sciences (NCATS).

Random draw from the library; overall some 5.3% were active at least once.
